VDR inhibitor: inhibitors of human vitamin D receptor | P11473 | VDR-SRC2-3 peptide fluorescence polarization, 2 h | Potency, µM, without a hit: max response, negative = inhibition, actives largely listed as inhibitors | 400,000 compounds, 0.93% hits; active means well fitted inhibition curve with a large enough effect; inconclusive means small, poorly fitted or top-dose-only effect, or another doubt; inactive means no such curve, though single readings can be large or run the other way; further: series mostly up to about 120 µM
Target sequence (P11473 whole entry, looked up): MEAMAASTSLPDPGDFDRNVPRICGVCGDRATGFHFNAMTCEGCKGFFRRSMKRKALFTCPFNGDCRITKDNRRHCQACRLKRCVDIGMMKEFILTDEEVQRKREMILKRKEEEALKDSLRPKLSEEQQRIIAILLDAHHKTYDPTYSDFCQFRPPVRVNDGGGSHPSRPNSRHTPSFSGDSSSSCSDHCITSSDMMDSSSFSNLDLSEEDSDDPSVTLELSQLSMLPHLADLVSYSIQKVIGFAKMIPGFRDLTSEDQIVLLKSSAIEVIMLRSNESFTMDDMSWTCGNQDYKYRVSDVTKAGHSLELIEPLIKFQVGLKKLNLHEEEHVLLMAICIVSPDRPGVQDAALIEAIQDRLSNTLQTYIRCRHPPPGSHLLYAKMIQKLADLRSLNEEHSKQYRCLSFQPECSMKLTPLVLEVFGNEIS
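FP read-out; VDR + SRC2-3 coactivator peptide; 23 nl compound by pintool; 2 h RT incubation; reagents held at 4 deg C, protected from light.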
Numbers without * were called inactive; ? = inconclusive; & = joins results of further samples. On the % scale 0 is the no-effect control and ±100 the full control effect; potency means the concentration at half of the fitted maximal effect. A portion of the library, so the mix of outcomes need not match the whole.

cpd	Structure	VDR inhibitor
1	COc1ccc(CCNC(=O)c2cnc3ccccn3c2=O)cc1	-7.9%
2	CCCC(=O)Nc1nnc(SCC)s1	0.5%
3	Cn1ncc(C#N)c1NC(=O)C1CC(c2ccccc2Cl)=NO1 (stereo not given)	-22.1%
4	Cc1cccc(Cn2nc(C)cc2NC(=O)CCCn2ccc([N+](=O)[O-])n2)c1	12.7%
5	COc1ccc(CCNC(=O)CCc2cn(Cc3ccc(F)cc3)c3ccccc23)cc1OC	6.4%
6	COc1ccc(OC)c(-n2nnnc2SCC(=O)NCc2ccc3c(c2)OCO3)c1	6.0%
7	CCOc1cccc(C2c3c(oc4ccc(F)cc4c3=O)C(=O)N2CCOC)c1 (stereo not given)	-0.9%
8	CC1=NN(c2ccccc2)C(=O)/C1=C\C=C1/N(C)c2ccccc2C1(C)C	-9.2%
9	CN1CCN(c2ccc(CNS(=O)(=O)c3ccccc3)cc2)CC1	5.0%
10	COc1ccc(Cl)cc1NC(=O)C(C)Sc1nnc(C2CC2)n1C1CC1 (stereo not given)	-6.4%
11	O=C(CCCC(=O)n1cnc2ccccc21)n1cnc2ccccc21	15.5%
12	O=C1Cc2ccccc2C(=O)N1Cc1ccccc1	-2.5%
13	CCCOc1ccc(-c2csc(N)n2)cc1[N+](=O)[O-]	-11.2%
14	Cc1ccc(Cl)c(OCC(=O)NCc2ccco2)c1	-8.1%
15	COc1cc(C#Cc2c(-c3cncn3C)n(C)c3ccc(Br)cc23)cc(OC)c1	-2.6%
16	COc1ccc(N2C(=O)C(CC(N)=O)N(NC(=O)CCc3ccccc3)C2=O)cc1 (stereo not given)	7.1%
17	Nc1ccc(Br)cc1Br	-15.4%
18	COc1cccc(CNC(=O)C2CCN(C(=O)N(C)C)CC2)c1	19.5%
19	COC(=O)c1ccc(C(=O)OC)c(NC(=S)N2CCCC(C)C2)c1 (stereo not given)	9.7%
20	O=C(NC1CCCCC1)c1ccc(CSc2nc3ccncc3n2Cc2ccccc2)cc1	-2.0%
21	Cc1ccccc1N1C(=O)CC(N2CCN(C(=O)c3ccco3)CC2)C1=O (stereo not given)	-12.0%
22	O=C(CCc1nnc(C2(c3ccc(Cl)cc3)CCC2)o1)N1CCCC(O)C1 (stereo not given)	-1.3%
23	COc1ccc(NC(=O)c2ccc3[nH]c(C)c(C)c3c2)c(OC)c1	22.8%
24	S=C(NC1CCCCC1)N1CCn2cccc2C1c1cccnc1 (stereo not given)	-26.8%
25	C=CCOC(=O)C(=O)/C=C/c1coc2ccccc2c1=O	14.1µM*
26	Cc1cccc(Nc2nnc(SCC(=O)Nc3ccccc3[N+](=O)[O-])s2)c1C	-7.4%
27	Cc1ccc2c(c1)C(=O)C(=O)N2CC1COc2ccccc2O1 (stereo not given)	70.8µM*
28	COc1ccc(-c2[nH]c(-c3ccc(F)cc3)nc2SCC(=O)NCc2ccco2)cc1OC	5.0%
29	CCCc1cc(=O)[nH]c(SCC(=O)Nc2cc(S(=O)(=O)N3CCOCC3)ccc2N(CC)CC)n1	-11.6%
30	CC1(C)CC(=O)C=C(NCCN2CCN(C(=S)Nc3ccc(F)cc3)CC2)C1	28.6%
31	O=C(Cn1cc2c(n1)CCCCC2)N1CCCCC1	-21.0%
32	CCOC(=S)N/C(=N\S(=O)(=O)c1ccc(C)cc1)c1ccccc1	-12.5%
33	O=C(Nc1c(S(=O)(=O)c2ccccc2)csc1Br)c1ccccc1Cl	-8.3%
34	Cc1csc(N2CCCC2=O)n1	0.9%
35	CCCc1ccc(OC(C)C(=O)Nc2sc3c(c2C(=O)OC)CCCCC3)cc1 (stereo not given)	89.1µM*
36	CC1CCc2c(sc(NC(=O)c3cccs3)c2C(=O)O)C1 (stereo not given)	-13.1%
37	Cc1cc2oc(C(=O)NCc3ccccc3)cc(=O)c2cc1C	0.8%
38	CC(C)Oc1ccc(C2NC(=O)c3ccccc3O2)cc1 (stereo not given)	-7.7%
39	O=C(Nc1cccc(-n2cnnn2)c1)c1cc2ccccc2o1	3.5%
40	CC(=O)Nc1ccc(S(=O)(=O)NNC(=S)NCc2ccco2)cc1	2.3%
41	CN(C(=O)CCc1ccccc1F)C1CCCN(Cc2ccccc2F)C1 (stereo not given)	35.5µM*
42	C=CCn1c(CCCOc2ccc(Cl)cc2Cl)n[nH]c1=S	16.4%
43	N#Cc1nc(-c2cccc3ccccc23)oc1N	-15.1%
44	Cc1nonc1CN(C)C(=O)c1cc(COc2ccc(F)cc2Cl)on1	-1.7%
45	Cc1ccc(S(=O)(=O)N(C)c2ccc(OC(=O)c3cccs3)cc2)cc1C	-16.7%
46	COc1ccc(CNC(=O)c2ccc3nccnc3c2)cc1	-18.7%
47	Cc1cccc(N(CC(=O)N/N=C/c2cc([N+](=O)[O-])ccc2Cl)S(C)(=O)=O)c1C	-12.0%
48	NC(=O)C1(N2CCCCC2)CCN(C2CC(=O)N(Cc3ccc(N4CCCC4=O)cc3)C2=O)CC1 (stereo not given)	2.2%
49	O=C(CCN1CCOCC1)Nc1cc(C(=O)Nc2ccccc2F)ccc1N1CC2CC(C1)c1cccc(=O)n1C2 (stereo not given)	2.7%
50	COc1ccc(/C=N/NC(=O)CCSc2nc3ccccc3s2)cc1OC	-9.3%
51	COc1ccc(-n2cc(C(=O)NCc3cccc(OC)c3)c3ccccc3c2=O)cc1	11.3%
52	CC1CN(CCc2ccccc2)c2nc3c(c(=O)n(C)c(=O)n3C)n2C1 (stereo not given)	12.6%
53	COc1ccc(/C(C)=N/NC(=O)CNC(=O)CCc2ccccc2)c(OC)c1	11.2%
54	CCc1c(C(=O)Nc2cc(C)cc(C)c2)[nH]c(C)c1C(C)=O	-2.9%
55	Cc1ccc(SCCN2CCN(CCc3ccccc3)CCC2=O)cc1	-20.0%&-18.6%
56	O=C(O)CNC(=O)C(c1ccccc1)c1ccccc1	-10.5%
57	O=C(CC1N=C2c3ccccc3N=C(SCc3ccc(Cl)cc3)N2C1=O)NCc1cccs1 (stereo not given)	5.5%
58	NC(=O)COc1ccc(/C=N\NC(=O)CC(=O)NCCc2ccccc2)cc1	-10.7%
59	O=C(O)c1cccc(OCCN2CCCC2=O)c1	-10.2%
60	CCc1nc(SCC(=O)c2ccc(Cl)s2)c2oc3ccccc3c2n1	-7.0%

Going on with the list.
cpd	Structure	VDR inhibitor
61	CCOc1ccc(OCCSc2nc(N)cc(=O)[nH]2)cc1	-22.1%
62	CCN(C(=O)Nc1cccc(Cl)c1)c1ccccc1	1.4%
63	COc1ccc(C(=O)C2CCCN(C(=O)C3CCOCC3)C2)cc1OC (stereo not given)	-17.7%
64	CC1C(=O)N2CCCc3cc(NS(=O)(=O)c4ccc([N+](=O)[O-])cc4)cc1c32 (stereo not given)	-1.9%
65	O=C1CC2c3ccccc3C1C1C(=O)N(CCO)C(=O)C21 (stereo not given)	?
66	CN(C1CCCCC1)S(=O)(=O)c1ccccc1	-5.9%
67	COc1ccc([N+](=O)[O-])cc1NC(=O)CSc1ccc2ccccc2c1	-14.0%
68	N=c1ncn(CC(O)CN2CCOCC2)c2nc(N3CCOCC3)[nH]c12 (stereo not given)	3.5%
69	c1cnc(N2CCSCC2)nc1	-2.4%
70	O=S(=O)(NCC1CCCO1)c1cnc(Cl)c(Cl)c1 (stereo not given)	3.4%
71	CCC(Oc1ccc2ccccc2c1)C(=O)O (stereo not given)	0.5%
72	Cn1nc(C(=O)OCC(=O)Nc2cccc(S(=O)(=O)N3CCCC3)c2)c2ccccc2c1=O	0.6%
73	CCOC(=O)c1cn(CC)c2cc(N3CCN(C)CC3)c(F)cc2c1=O	-3.2%
74	Cc1ccccc1CNC(=O)c1ccc(CSc2nc3cccnc3n2Cc2ccccc2)cc1	16.0%
75	CCOC(=O)/C=c1\s/c(=C\c2ccc(C)cc2)c(=O)n1CC(=O)NCc1ccco1	-3.4%
76	COc1ccc(Cc2nnc(SCC(=O)Nc3cc(Cl)ccc3OC)[nH]c2=O)cc1	12.4%
77	O=c1c2sc3nc(N4CCOCC4)c4c(c3c2nnn1Cc1ccccc1)CCCC4	-4.7%
78	O=C(c1ccc(CS(=O)(=O)c2ccccc2)o1)N1CCN(c2ccccc2)CC1	-7.9%
79	Cc1ccccc1-c1noc(-c2nnn(-c3ccccc3C)c2N)n1	11.7%
80	CC1CCC(NC(=O)c2ccc3c(c2)N(Cc2cccc(F)c2)C(=O)c2ccccc2S3)CC1 (stereo not given)	11.2%

Structures above containing bromine, in the order listed:
cpd	Structure	VDR inhibitor
15	COc1cc(C#Cc2c(-c3cncn3C)n(C)c3ccc(Br)cc23)cc(OC)c1	-2.6%
17	Nc1ccc(Br)cc1Br	-15.4%
33	O=C(Nc1c(S(=O)(=O)c2ccccc2)csc1Br)c1ccccc1Cl	-8.3%

Some of the entries so far, as labelled records.
63) COc1ccc(C(=O)C2CCCN(C(=O)C3CCOCC3)C2)cc1OC (stereo not given)
  VDR inhibitor = -17.7%

71) CCC(Oc1ccc2ccccc2c1)C(=O)O (stereo not given)
  VDR inhibitor = 0.5%

More structures:
cpd	Structure	VDR inhibitor
81	O=C(NCc1ccccn1)c1c(O)c2cccc3c2n(c1=O)CC3	24.2%
82	CCOc1ccc(N(C(=O)c2cnccn2)C(C(=O)NC2CCCCC2)c2ccc(O)cc2)cc1 (stereo not given)	1.7%
83	CCCn1c(SCC(=O)Nc2cccc(F)c2)nc(O)cc1=O	-23.7%
84	Cc1ccc(C(=O)NC(=S)Nc2ccc(S(=O)(=O)N(C)c3ccccc3)cc2)cc1	8.8%
85	Cc1ccc(N2CCN(CCCN3C(=O)C4CCCN4C3=O)CC2)cc1 (stereo not given)	-5.9%
86	Cc1c(CC(=O)NCC(=O)O)c(=O)oc2cc3oc4c(c3cc12)CCCC4	-23.6%
87	CCOC(=O)C1(Cc2cccc(F)c2)CCN(CC(O)CO)CC1 (stereo not given)	3.1%
88	CCOC(=O)CSc1nnc(CNC(=O)c2ccc(OC)cc2OC)n1C	5.3%
89	Cc1ccc(S(=O)(=O)c2nc(-c3ccccc3Cl)oc2NCCCN2CCOCC2)cc1	-18.9%
90	CCOC(CNC(=O)C1CCN(S(=O)(=O)c2ccc3nc4c(c(C(=O)O)c3c2)CC(C)CC4)CC1)OCC (stereo not given)	-24.1%
91	O=C1CCC=C1C(O)c1ccc2c(c1)OCO2 (stereo not given)	1.9%
92	COc1ccc(-c2nnc(SCC#CCO)o2)cc1OC	-15.7%
93	CCOC(=O)[C@H]1[C@H]2COc3ccc(C)cc3[C@@H]2N2C(=O)CN(Cc3ccccc3)C(=O)[C@@]12C	-15.4%
94	COc1cc(/C=C(\C#N)C(N)=O)ccc1OCc1c(C)no[n+]1[O-]	-18.0%
95	Cc1nc2c(C(=O)NCCC(C)C)c[nH]n2c(=O)c1Cc1ccccc1F	-5.9%
96	O=C(O)COCc1nc2ccccc2s1	-3.2%
97	O=c1cc(C(F)(F)F)nc(SCc2cccc3ccccc23)[nH]1	-11.0%
98	Cc1ccccc1CSc1ncc(Cl)c(C(=O)NCc2ccccc2)n1	2.7%
99	COc1cccc(NCc2ccc([N+](=O)[O-])s2)c1	-13.1%
100	Cc1cc(Cl)c2oc(C(=O)N(C)C3CCOC3)c(C)c2c1 (stereo not given)	?
101	c1cnc(-c2nnc3n2CCCCC3)cn1	6.7%
102	OC(COc1ccc(Br)cc1)CN1CCCC1 (stereo not given)	-8.3%
103	O=C1Nc2c(Br)cc(Br)c3cccc1c23	17.7%
104	COc1ccc(N2CCN(S(=O)(=O)c3ccc(-c4cnc(C5CC5)o4)cc3)CC2)cc1	-12.0%&-0.6%
105	COc1ccccc1C(=O)NCCC(=O)NCC1CCCO1 (stereo not given)	-7.8%
106	CCOC(=O)Cc1c(C)nc2cc(-c3ccc(C(C)(C)C)cc3)nn2c1C	-8.4%
107	CC(C)NC(=O)c1ccc2c(=O)n(Cc3ccco3)c(=S)[nH]c2c1	1.3%
108	CC(NC(=O)c1cccc(OC2CCN(C3CCN(C)CC3)CC2)c1)c1ccccc1 (stereo not given)	-10.0%
109	Cc1ccccc1OCCCCCCN1CCNCC1	20.3%
110	O=C(NCCCN1CCN(Cc2ccccc2)CC1)C1CCN(S(=O)(=O)N2CCCC2)CC1	10.8%
111	O=C(CSc1nnc(-c2ccc(O)cc2)n1Cc1ccco1)N1CCc2ccccc2C1	-0.7%
112	Nn1c(SCC(=O)NCCc2ccc(S(N)(=O)=O)cc2)nnc1C1CCCCC1	7.6%
113	O=C(COc1ncnc2c(Cl)cc(Cl)cc12)Nc1cc([N+](=O)[O-])ccc1Cl	8.0%
114	COc1cc(C#Cc2c(-c3cncn3C)n(C)c3ccc(-c4ccc(OC)c(OC)c4)cc23)cc(OC)c1	-18.2%
115	CCOC(=O)CSc1nc(=O)n2cccc(C)c2n1	18.4%
116	CCCCNC(=O)C1CCN(S(=O)(=O)c2ccc3c(c2)CC(C)N3C(=O)C2CC2)CC1 (stereo not given)	-5.3%
117	COc1cc(OC)c(S(=O)(=O)Nc2ccccc2N2CCOCC2)cc1NC(C)=O	-8.2%
118	COc1ccc(CNc2cc(-c3cccc(C#N)c3)ncn2)c(OC)c1	-5.2%
119	CCOC(=O)Cc1csc(CC(N)=O)n1	-4.2%
120	CCN1C(=O)[C@H]2[C@H]3CN=C(SCc4ccc(C(=O)OC)cc4)N3[C@@](C)(C(=O)OC)[C@H]2C1=O	-12.2%
121	CC1=C(C#N)S(=O)(=O)C(C#N)C(c2ccccc2)C1 (stereo not given)	-9.3%
122	COc1cccc(NC(=O)CCc2c(C)nc3c4cccnc4nn3c2C)c1	-11.5%
123	CCN(CC)CCCN(C(=O)c1cccc(C)c1)c1nc(-c2ccc(OC)cc2)cs1	-17.9%
124	Cc1ccc(Nc2cnn(C34CC5CC(CC(CC(=O)O)(C5)C3)C4)c(=O)c2Cl)cc1	5.1%
125	CCOC(CNc1cc(C)nc2c(-c3ccccc3OC)c(C)nn12)OCC	1.0%
126	N#Cc1c(N2CCN(c3ccc(F)cc3)CC2)nc(N)c2c(N)nc3c(c12)CC(=O)N3C1CC1	14.4%
127	Nc1ccc(CCC(=O)N2CCCC2)cc1	2.7%
